Hsc70: small molecules displacing fluorescent ligand from Hsc70 – biochemical, fluorescence polarization, primary screen (AID 568). Hsc70 fluorescence polarization, probe displacement; higher % means a stronger effect; strong numbers were not always called active. displacement, % at 20 µM, or IC50 in µM where a hit was titrated. 83,000 tested, under 10 active;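 active means displacement above 50% without optical interference and an IC50 on retest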;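 further: ATPase domain with a fluorescein-tagged ATP probe; 0% = vehicle and 100% = excess ADP; read after one hour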
MT1-MMP promoter: MT1-MMP gene expression reporter suppression – cell-based, luciferase reporter, luminescence (AID 618) | MT1-MMP promoter luciferase reporter cells, luminescence | calls from a first round at 10 µM; hits with a dose series show EC50 in µM | 87,000 tested, 0.62% active;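 active means over half of the reporter light lost at 10 µM or EC50 under 50 µM; inactive means the rest and hits that failed the dose series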;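 further: actives suppress MT1-MMP promoter-driven transcription so potencies describe inhibitors; HT1080 fibrosarcoma cells; overnight exposure; toxic or luciferase-blocking compounds were not removed from the actives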
WNV protease inh: inhibitors of West Nile virus NS2B-NS3 protease; WNV NS2B-NS3 protease, fluorogenic substrate Ex360/Em465; active compounds read low; z-score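 (tested at a level between 10 and 100 µM)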; 65,000 tested, 0.18% active;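 active means z-score at -3 or under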;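 further: score is relative to mean and spread of the compound wells of a plate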
Target sequence (P06935 1371-1501 limits assumed): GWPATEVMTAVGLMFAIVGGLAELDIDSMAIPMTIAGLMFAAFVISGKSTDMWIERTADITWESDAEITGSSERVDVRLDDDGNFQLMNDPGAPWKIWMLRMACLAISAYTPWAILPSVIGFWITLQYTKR
Target sequence (P06935 1502-1679 limits assumed): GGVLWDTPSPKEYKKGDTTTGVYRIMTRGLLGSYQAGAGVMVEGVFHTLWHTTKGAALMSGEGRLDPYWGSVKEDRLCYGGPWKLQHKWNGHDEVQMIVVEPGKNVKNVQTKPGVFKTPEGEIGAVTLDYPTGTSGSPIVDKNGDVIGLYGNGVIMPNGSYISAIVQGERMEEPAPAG
* = called active by the depositor; i = inactive; nt = not tested or not shown.

SMILES | Hsc70 | MT1-MMP promoter | WNV protease inh
Cc1ccc(-c2csc(N3CCC(NS(=O)(=O)c4ccc5c(c4)OCCO5)CC3)n2)cc1 | 1.3% | i | 0.09
CCOC(=O)C1CCCN(C(=O)c2ccc3c(c2)NC(=O)C(N2CCOCC2)S3)C1 (stereo unspecified) | -4.4% | i | 1.53
C=CCOn1c(C)c(C(C)=O)c2c3no[n+]([O-])c3ccc21 | 0.7% | i | nt
CCOC(=O)CNC(=O)CSc1nc2cccnc2n1Cc1ccccc1 | -1.2% | i | -0.39
CCCCCCOC(=O)CCc1c(C)nc(N)[nH]c1=O | 6.3% | i | nt
Cc1cc(NC(=O)C2CC2)ncc1NC(=O)C12CC3CC(CC(C3)C1)C2 | 4.9% | i | -0.48
CCOc1ccc(S(=O)(=O)Nc2cc(Cl)ccc2O)cc1 | 0.4% | i | -0.29
CSc1nc(-c2ccco2)nn1C(=O)Cc1ccccc1 | -62.1% | i | 0.05
C=CCn1c(Cc2nc3ccc(Cl)cc3[nH]2)n[nH]c1=S | -1.7% | i | 0.03
CC(=O)Nc1nc(C)c(-c2csc(Nc3ccc(O)cc3)n2)s1 | 2.1% | i | -0.28
COc1cccc(CSc2nc3sc(C)c(C)c3c(=O)n2Cc2ccco2)c1 | -0.3% | i | -0.67
COc1ccc(N2CCN(C(=O)CC(NC(N)=O)c3cccc(Oc4ccccc4)c3)CC2)cc1 (stereo unspecified) | 5.3% | i | -1.04
Cc1ccccc1-c1n[nH]c(=S)o1 | 1.5% | i | 1.5
CCOC(=O)CC(=O)CSc1nnc2sc3ccccc3n12 | -5.1% | i | -1.76
COc1ccc(N2C(=O)C3CCCN3C2=O)cc1 (stereo unspecified) | -1.8% | i | nt
O=C(CCNc1cc(Cl)cc(Cl)c1)c1ccco1 | -1.2% | i | 0.16
COc1ccccc1-n1cnc2cc(C(=O)NCCCN3CCOCC3)ccc21 | -7.7% | i | 0.95
FC(F)(F)c1cc(-c2ccco2)nc(N2CCN(c3ccccc3)CC2)n1 | -4.6% | i | nt
CCC1(C)N(O)C(C)(C)C(c2ccc(OC)cc2)=[N+]1[O-] (stereo unspecified) | 1.3% | i | 0.15
Cc1ccc2c(CC(=O)O)coc2c1 | 0.3% | i | 0.19
Cc1ccc(-c2nnc(SCC(=O)N3CCCc4ccccc43)n2N)cc1 | 4.1% | i | -1.21
CC1CCCC(C)N1C(=O)Nc1cccc(Cl)c1 (stereo unspecified) | -2.9% | i | -0.64
Cc1ccc2c(c1)N(Cc1ccc3c(c1)OCO3)C(=O)C(C)O2 (stereo unspecified) | -2.1% | i | 0.1
Cn1c(SCC(=O)N2c3ccccc3Sc3ccc(Cl)cc32)nnc1-c1ccco1 | 0.4% | i | -1.09
Cc1nn2c3ccccc3n(C)c2nc1=O | 3.1% | i | nt

Later entries:
SMILES | Hsc70 | MT1-MMP promoter | WNV protease inh
CCOc1ccc(OC(=O)C(CCS(C)(=O)=O)N2C(=O)c3ccccc3C2=O)cc1 (stereo unspecified) | -2.2% | i | nt
Cc1nc2cccc(C(=O)NCc3ccccc3)c2o1 | -2.8% | i | -0.05
C=CCn1c(SCC(=O)NCc2ccco2)nc2sc3c(c2c1=O)CCC3 | 4.4% | i | 0.13
COc1cccc(C2/C(=C(\O)c3c(C)nc4c(C)cccn34)C(=O)C(=O)N2CCCN(C)C)c1 (stereo unspecified) | -4.2% | i | -0.48
CC(=O)Nc1ccc(N2CCCCC2)cc1 | 1.7% | i | nt
CCCCc1[nH]nc2c1C1(C(=O)N(CC)c3ccccc31)C(C#N)=C(N)O2 (stereo unspecified) | -0.6% | i | -0.62
CCOc1ccccc1N(CC(=O)O)S(=O)(=O)c1ccc(C)cc1 | -1.9% | i | -1.58
O=C(C1CCCN(Cc2cccc(F)c2)C1)N1CCCCC1 (stereo unspecified) | 4.5% | i | nt
Cc1ccccc1-c1nc(CS(=O)(=O)CC(=O)NCCCN2CCCC2=O)c(C)o1 | 6.8% | i | -0.88
CCCCOc1cccc(C2(C(=O)O)CCCC2)c1 | -0.2% | i | 1.04
Cn1c(C(=O)NCCN2CCc3ccccc3C2)cc2c(=O)n(C)c3ccccc3c21 | 5.8% | i | 1.45
COC(=O)CSc1nc(N)nc(C)c1Br | -2.4% | i | 0.62
Cc1cc2n(n1)C(c1cn(-c3ccccc3)nc1C)Nc1ccccc1-2 (stereo unspecified) | -0.3% | i | -0.08
O=C(Nc1ccc2c(c1)OCCO2)NC12CC3CC(CC(C3)C1)C2 | 1.0% | i | 0.97
CCOC(=O)N1CCC(c2nc(C)sc2C(=O)O)CC1 | 3.3% | i | 0.85
Cc1ccc(NCc2nnc(SCC(N)=O)n2CCc2ccccc2)cc1 | 1.2% | i | -0.51
COc1ccc(S(=O)(=O)N2CCOCC2)cc1C(=O)Nc1ccon1 | -2.4% | i | 1.43
CCN1C(=O)/C(=C/N2CC(C)CC(C)C2)SC1=S (stereo unspecified) | -2.1% | i | -0.61
Cc1ccc(C(C(=O)NC2CCCCC2)N(CCC(C)C)C(=O)CNC(=O)c2ccco2)o1 (stereo unspecified) | 1.8% | i | 1.26
Cn1c(=O)c2c(nc(SCCN3CCOCC3)n2Cc2ccc(Cl)cc2)n(C)c1=O | -0.4% | i | -0.72
O=C(Oc1cccnc1)c1cc(S(=O)(=O)N2CCCCC2)ccc1Cl | 0.8% | i | nt
COc1ccc(CN2CCN(C(=O)c3cccnc3)CC2)cc1Br | 5.2% | i | -0.44
COc1ccccc1N1CCN(C(=O)c2cc(-c3ccco3)on2)CC1 | -1.3% | i | -0.94
Cc1nc(/N=C\N(C)C)sc1C(=O)Nc1ccccc1 | -2.8% | i | 0.47
Cc1oc(C(=O)O)cc1COc1cccc2cccnc12 | 2.7% | i | 0.78

Grouped by structure, the entries above with fluorine (two)
SMILES | Hsc70 | MT1-MMP promoter | WNV protease inh
FC(F)(F)c1cc(-c2ccco2)nc(N2CCN(c3ccccc3)CC2)n1 | -4.6% | i | nt
O=C(C1CCCN(Cc2cccc(F)c2)C1)N1CCCCC1 (stereo unspecified) | 4.5% | i | nt

Individual results from the results shown:
In WNV protease inh, `Cc1ccc(NCc2nnc(SCC(N)=O)n2CCc2ccccc2)cc1` shows -0.51
In WNV protease inh, `COC(=O)CSc1nc(N)nc(C)c1Br` shows 0.62

Going on with the list:
SMILES | Hsc70 | MT1-MMP promoter | WNV protease inh
O=S1(=O)CCC(NS(=O)(=O)/C=C/c2ccccc2)C1 (stereo unspecified) | 1.9% | i | -0.31
Cc1ccc2oc(=O)c3cnn(CC(=O)NCCN(C)C)c3c2c1 | 4.5% | i | -0.0014
Cc1ccc(-c2nn(-c3ccccc3)c3[nH]c(=O)c(CNCCN(C)C)cc23)cc1 | 3.1% | i | -0.63
CCC(=O)N1CCc2cc(S(=O)(=O)CCC(=O)Nc3ccc(CC)cc3)ccc21 | 5.6% | i | 0.66
CCN(CC)S(=O)(=O)c1ccc2oc(C(=O)NC(C)C)c(C)c2c1 | 2.2% | i | 0.32
Cn1nc(CC(=O)NCCN2C(=O)CSC2=O)c2ccccc2c1=O | -0.1% | i | -0.17
O=C(Nc1ccc(Cl)cc1)NC1CCS(=O)(=O)C1 (stereo unspecified) | 3.9% | i | 2.62
COC(=O)c1ccc(OC)c(CSc2nnc(COc3ccc(OC)cc3)o2)c1 | 3.9% | i | 0.75
CC(=O)c1cccc(NC(=O)C2CCCN2S(=O)(=O)c2cccc3cccnc23)c1 (stereo unspecified) | 0.7% | i | -0.8
CCN1CCN(C(c2ccccc2)c2nnnn2CCc2ccc(OC)c(OC)c2)CC1 (stereo unspecified) | -4.0% | i | -0.18
Cc1nc2ccccc2c2nc(NC(=O)Cc3ccccc3)nn12 | -1.8% | i | -1.29
COc1cccc(C(=O)Nc2cc(=O)n(C)c(=O)n2C)c1OC | 8.0% | i | 0.33
Cc1c(N=Cc2cccs2)c(=O)n(-c2ccccc2)n1C | -1.3% | i | -0.31
CCOC(=O)c1ccccc1NC(=O)c1ccc(Cl)c(S(=O)(=O)N2CCOCC2)c1 | 0.5% | i | 0.21
CC1(C)CC(=O)C(C=NCC(O)c2ccccc2)=C(O)C1 (stereo unspecified) | 0.6% | i | -1.05
c1ccc(OCCOCCN2CCOCC2)cc1 | 3.0% | i | nt
CN(/N=C/c1cccs1)c1cc(=O)n(C)c(=O)[nH]1 | -1.5% | i | nt
CCOc1ccc(-n2c(=S)sc3c(=O)[nH]c(SCC(=O)NCc4ccco4)nc32)cc1 | -3.8% | i | -0.39
c1ccc(Cn2ncc3c(N4CCOCC4)ncnc32)cc1 | -2.6% | i | nt
COc1cc(OC)cc(OCC(O)Cn2ccnc2C)c1 (stereo unspecified) | -0.3% | i | -0.72
Nc1c(C(=O)NCc2ccc3c(c2)OCO3)c2nc3ccccc3nc2n1CCCN1CCOCC1 | 5.9% | i | -0.22
COC(=O)CSc1nc(C)cc(C(F)(F)F)c1C#N | -2.4% | i | nt
Cn1c(=NC(=O)c2cnccn2)sc2ccccc21 | -2.9% | i | -1.53
O=C(OCc1c(Cl)nc2sccn12)c1cc2c(s1)CCCC2 | 3.8% | i | 1.36
CCOC(=O)N1CCN(C(=O)CCn2c(=S)[nH]c3cc(OCC)c(OCC)cc3c2=O)CC1 | 0.1% | i | 0.45

Next part; the last two above are carried over.
SMILES | Hsc70 | MT1-MMP promoter | WNV protease inh
O=C(OCc1c(Cl)nc2sccn12)c1cc2c(s1)CCCC2 | 3.8% | i | 1.36
CCOC(=O)N1CCN(C(=O)CCn2c(=S)[nH]c3cc(OCC)c(OCC)cc3c2=O)CC1 | 0.1% | i | 0.45
COc1ccccc1NC(=O)CN1CCN(CC(=O)Nc2ccccc2F)CC1 | 1.0% | i | 0.35
COc1c(Cl)ccc(Cl)c1C(=O)NC(=O)N1CCOCC1 | -7.1% | i | 0.26
O=C(Nc1cccnc1)c1cc(-c2cccs2)on1 | -5.9% | i | 1.4
CCOC(=O)c1nnc(-c2ccc(C)cc2)nc1Sc1ccc(Cl)cc1 | 0.6% | i | nt
COC(=O)N1CN(C(=O)OC)CN(C(=O)OC)C1 | -2.8% | i | -1.03
COc1ccc(S(=O)(=O)Nc2cccc(C)n2)c2ccccc12 | 1.8% | i | -0.21
CC1(C)CC(=O)c2cc(OCC(=O)NCCN3CCCc4ccccc43)ccc2O1 | 8.8% | i | 1.44
O=C(c1ccco1)N1CCN(C(=O)C2CCCO2)CC1 (stereo unspecified) | -4.8% | i | 1.2
COc1ccccc1CNC(=O)CCn1c(=O)sc2ccccc21 | 3.6% | i | 0.34
CC(C)Sc1nc(SCC(=O)NCc2ccco2)c2c3c(sc2n1)COC(C)(C)C3 | -3.1% | i | 0.0031
COc1ccccc1NC(=O)NCC(=O)Nc1ccc(F)c(F)c1 | -1.4% | i | -0.12
O=C(c1ccccc1-c1nc2ccccc2[nH]1)N1CCOCC1 | -0.5% | i | -0.02
O=C(/C=N/O)NCCN1CCCCC1 | 1.7% | i | -0.83
Cc1ccc(C)c2[nH]c(=O)c(CN(CCN3CCOCC3)Cc3nnnn3CC3CCCO3)cc12 (stereo unspecified) | -4.3% | i | 0.84
Cc1nc2ccccc2nc1CSc1nncs1 | -3.9% | i | -1
O=C(COc1ccc(Cl)cc1)N1CCN(S(=O)(=O)c2ccc(Cl)cc2)CC1 | -1.7% | i | nt
O=C(CSc1ncn[nH]1)N1CCN(c2nnc(-c3ccccc3)c3ccccc23)CC1 | -5.6% | i | -0.83
O=C(CN1CCCC1)Nc1ccc(NC(=O)Nc2ccccc2)cc1 | 1.7% | i | 0.45
O=c1[nH]cnc2c1sc(=S)n2-c1ccccc1 | -0.2% | i | -0.31
CCN1CCN(c2ccc(NC(=O)Cc3ccccc3)cc2)CC1 | 1.6% | i | 0.94
CCCCCCn1cc(C(=O)O)c(=O)c2ccccc21 | -6.6% | i | 0.77
COc1ccc(-c2nnc(SCC(=O)Nc3nc4ccccc4s3)n2C)cc1 | -2.2% | i | nt
CCC(C)OC(=O)C1=C(C)OC23OC(N)=C(C#N)C12C(=O)c1ccccc13 (stereo unspecified) | -0.4% | i | nt
Cc1nc(SCC(=O)Nc2c(C)nn(C)c2C)c2cnn(-c3ccccc3)c2n1 | 0.8% | i | nt
CC(CNC(=O)c1cncc(O)c1)NC(=O)c1cncc(O)c1 (stereo unspecified) | 2.0% | i | -0.25
COc1ccc(CCNC(=O)c2ccn[nH]2)cc1OC | -1.6% | i | 0.47
CN1CCN(C(=O)Cn2c(=O)oc3cc(S(=O)(=O)NCc4ccccc4)ccc32)CC1 | -0.8% | i | -1.02
COc1cccc(OC)c1C(=O)N1CC(C)OC(C)C1 (stereo unspecified) | 0.9% | i | -0.16
Cc1cc(C)nc(NC(=NCc2ccc3c(c2)OCO3)NC(=O)Nc2ccccc2)n1 | 6.9% | i | 0.77

Two successive entries already listed:
SMILES | Hsc70 | MT1-MMP promoter | WNV protease inh
Cc1nc2ccccc2nc1CSc1nncs1 | -3.9% | i | -1
O=C(COc1ccc(Cl)cc1)N1CCN(S(=O)(=O)c2ccc(Cl)cc2)CC1 | -1.7% | i | nt

Bioassay records (PubChem)
